BasE inh = blocks the Acinetobacter baumannii siderophore enzyme BasE; purified BasE, fluorescence polarization binding displacement; inhibition, % (concentration not given with the values); AID 485350; 0.1% of 84,000 active;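 active = both replicates above 25% with normal brightness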;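 note: 0% = negative plate control signal and 100% = positive plate control signal; stock transfer was 100 nL into about 30 µL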
LANA-nucl inh = LANA-nucleosome interaction inhibition; FITC-LANA1-23 / chicken nucleosome fluorescence polarization; hits give low values; z-score (no concentration beside the values); 0.3% of 51,000 active; AID 720717;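 active = both repeat wells score below -2 in polarization z-score versus plate sample wells, excluding overly bright wells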;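 note: 100 nL library stock added to about 30 µL; numbers are from one replicate; some results filed as inactive read as strong as hits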
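Material: Purified chicken nucleosomes with FITC-labelled LANA N-terminal peptide (1-23) | Reagent: 50 nM FITC-LANA1-23 probe | Medium: TEN-BT buffer, pH 7.5 | Times: 10–45 min incubation at room temperature | Detection: Fluorescence polarization | Replication: Duplicates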
Numbers without * were called inactive; / = no result given. This is a subset. The share of hits here may be higher or lower than overall.

SMILES	BasE inh	LANA-nucl inh
O=C(O)C1CCC(CNCc2ccccc2Cl)CC1 (stereo not given)	-8.1	0.36
Cc1cc(=O)n(C(C)(C)C)c(=O)n1Cc1ccccc1	0.9	0.095
O=C(O)c1ccccc1C(=O)NCc1nc(-c2ccc(C(F)(F)F)cc2)no1	2.2	-1
Cc1cc(C)c2cccnc2c1O	2.4	-0.3
Cc1cccc(CSc2nncn2C)c1	-3.0	2.9
O=C1N=c2ccccc2=C1c1sc(Nc2cccc(C(F)(F)F)c2)nc1O	4.1	/
CCN(CC)C(=O)Cn1c(C)c(/C=C/C2=CCN(C)CC2)c2ccccc21	0.5	1.6
CCOc1ccc(OCCCC(=O)Nc2nc3ccccc3[nH]2)cc1	-5.8	/
CCOC(=O)N1CCC(NC(=O)C2CCN(c3nnc(-n4cccc4CNc4ccc(OCC)cc4)s3)CC2)CC1	0.8	0.14
O=C(c1csc2c1CCCC2)N1CCCCCCC1	0.2	0.18
COc1nc(N2CCOCC2)nc(N2CCN(c3ccc(F)cc3)CC2)n1	-0.8	-0.42
CCN(CC)S(=O)(=O)c1ccc2c(c1)nc(CCC(=O)OCc1ccc(C(=O)OC)o1)n2C	-0.4	/
CN(C)S(=O)(=O)c1ccc(NC(=O)COC(=O)C2CC3CCCC(C2)C3=O)cc1 (stereo not given)	0.7	/
O=c1cc(CSc2nnnn2C2CC2)nc2sccn12	1.7	/
CC1=NN(c2ccccc2)C(=O)/C1=C/c1cc(C)n(C2CC2)c1C	1.0	/
CC(OC(=O)CCc1nc2ccccc2[nH]c1=O)C(=O)c1ccccc1 (stereo not given)	0.4	0.5
CCOC(=O)c1cnc2cc(-c3ccco3)[nH]n2c1=O	-3.6	2.6
CC1C(=N)N(c2nc(N(C)C)nc(N(C)C)n2)CC1=O (stereo not given)	0.4	-0.61
COC(=O)/C(C#N)=C/c1cccc(/C=C(\C#N)C(=O)OC)c1	1.9	/
O=C(O)CCCNc1nc2ccccc2s1	-0.2	/
Cc1ccc(Cl)cc1N1CCN(Cn2sc3ccccc3c2=O)CC1	-1.2	/
CS(=O)(=O)N(CC(=O)NCc1ccncc1)c1ccccc1	4.1	-0.28
CCn1c(CNC(=O)c2cccc(C)c2)nnc1SCC(=O)N1CCc2ccccc21	-1.1	-0.41
NS(=O)(=O)c1ccc(CCNC(=O)C2Cc3ccccc3CN2C(=O)c2ccco2)cc1 (stereo not given)	3.5	/
O=C(CSc1nnnn1-c1ccccc1)N1CCCCC1	2.2	/
Cc1c(O)ccc2c(CN(C)Cc3ccc(Cl)cc3)cc(=O)oc12	5.3	/
O=C(OCC(=O)N(c1ccccc1)C1CCCCC1)c1ccc(CO)cc1	-1.9	/
CCN(S(=O)(=O)c1ccc(F)cc1)S(=O)(=O)c1c(C)c(C)c(C)c(C)c1C	-1.5	/
COc1ccccc1N1CC(C(=O)N2CCN(S(=O)(=O)c3cccs3)CC2)CC1=O (stereo not given)	0.9	/
Cc1cccc(C(=O)OCC(=O)N2CCCC(C)C2)c1 (stereo not given)	2.7	/
COc1ccccc1N1CCN(C(=O)/C=C/c2c(C)nn(-c3ccccc3)c2C)CC1	-0.2	/
COC(=O)c1cc(NC(=O)CNc2cc(NC(C)=O)ccc2OC)cc(C(=O)OC)c1	-0.4	/
COCCNC(=O)Cc1ccc(F)cc1	-0.6	0.86
Cc1nc2cc(C(=O)Nc3ccccc3O)ccc2n1-c1ccccc1	-5.2	/
CCn1cnc2c(cnn2-c2ccccc2)c1=O	1.0	-0.29
CCOC(=O)c1nnn2c1nc(SCc1ccc(F)cc1)c1ccccc12	-0.1	/
Cc1noc(C)c1COC(=O)c1ccccc1NC(=O)Cc1ccccc1	3.0	/
Cc1sc(NC(=O)/C=C/c2cccs2)c(C#N)c1C	0.6	1.4
Cc1nc(C)c(C(=O)NCc2ccc3c(c2)OCO3)s1	-0.6	0.47
COC(=O)c1cccc(NC(=O)C=C(C)C)c1	-1.4	0.41
CCOC(=O)c1cc(=O)c2ccc(OCC(=O)Nc3ccccc3)cc2o1	1.1	/
COc1ccc(C2(CNC(=O)C(c3ccccc3)c3ccccc3)CCOCC2)cc1	1.9	/
COC(=O)C1=C(C)N(C)C(=O)/C1=C\c1ccccc1	2.0	/
Cc1occc1C(=O)Nc1ccccc1Cc1ccccc1	3.9	-1.4
CCOC(=O)CS(=O)(=O)c1nc2c(c(C(F)(F)F)n1)CCc1ccccc1-2	4.0	0.82
CC1(C)C2CCC1(C)C(NC(=O)C1COc3ccccc3O1)C2 (stereo not given)	0.8	/
CC(C)Cn1nccc1N	0.2	/
O=C(c1cccs1)N(Cc1ccc(Br)cc1)c1ccc(F)cc1	1.6	/
O=C(CSc1nnnn1Cc1ccccc1)n1c2c(c3c1CCCC3)CCCC2	2.3	-0.85
Cc1ccn(CCC(=O)NCCc2ccccc2)n1	1.2	-1.1
COc1nc(NCCc2ccc(OC)c(OC)c2)nc(N2CCC(Cc3ccccc3)CC2)n1	-0.1	-0.0015
COc1ccc(C2C(C(=O)OCC(=O)N3CCCCC3)CCC(=O)N2c2ccc(OC)cc2)cc1 (stereo not given)	0.5	/
CCCN1N=C(C(C)(C)C)Cn2c1nc1c2c(=O)n(CCC)c(=O)n1C	-0.1	0.024
COc1ccc2c(c1)sc(=NC(=O)COCC(=O)N=c1sc3cc(OC)ccc3n1C)n2C	-0.5	1.9
CC1CCc2sc(-c3nnc(SCC4CCOCO4)o3)cc2C1 (stereo not given)	1.5	/
O=C(CCc1n[nH]c(=O)[nH]c1=O)NCc1ccccc1	1.8	0.49
COC(=O)c1ccc(C(=O)OC)c(NC(=O)Cn2nc(C(F)(F)F)cc2C)c1	0.8	/
CSCc1ccc2oc(C(=O)O)cc2c1	0.2	0.44
N#CCCN(C1CCCCC1)S(=O)(=O)c1ccc(Cl)cc1	0.9	-0.11
Cn1c(C(=O)O)ccc1S(=O)(=O)N(Cc1ccccn1)Cc1ccccn1	0.0	0.75

Next section
SMILES	BasE inh	LANA-nucl inh
O=C(NCC(=O)N1CCc2ccccc21)c1ccccc1Cl	2.0	/
N=C1C(c2nc3ccccc3s2)=C(O)CN1/N=C/c1ccc(O)c(O)c1O	-14	/
Cc1onc(-c2ccccc2Cl)c1C(=O)N1CCCC1	3.0	0.86
CNC(=O)c1cc(S(=O)(=O)Nc2ccc3c(c2)OCCO3)ccc1C	2.5	0.42
O=C(NC1CCCCNC1=O)c1csc2ccccc12 (stereo not given)	2.0	/
Cc1c(Cl)cccc1N=C1NN=C(c2c(N)n(C)c(=O)[nH]c2=O)CS1	0.1	/
Cc1noc(C)c1COc1ccc(CC(=O)N(C)Cc2ccc3c(c2)OCO3)cc1	0.1	/
N=C1N=C2C=CC=CN2C(=O)/C1=C\c1ccccc1	1.2	/
O=c1c2cc3c(cc2[nH]c(=S)n1CCN1CCOCC1)OCO3	-1.1	-0.21
CCOC(=O)C1CCN(C(=O)c2ccc3c(c2)NC(=O)C(CS(=O)(=O)Cc2ccccc2Cl)N3)CC1 (stereo not given)	-8.8	2.1
CCOC(=O)C1CCN(C(=O)Cn2cc(C(=O)c3ccco3)c3ccccc32)CC1	2.1	0.008
O=c1c2cnn(CCO)c2ncn1Cc1ccc(F)cc1	-2.3	-0.53
N#CCSc1ccccc1NC(=O)COC(=O)Cc1c[nH]c2ccccc12	-4.7	/
Cc1cc(C)c(C2C(C#N)=C(N)Oc3n[nH]c(C)c32)cc1COc1ccccc1Cl (stereo not given)	0.0	/
COC(=O)c1ccc(S(N)(=O)=O)o1	0.5	-1.1
CCc1ccc(OC(=O)/C=C/c2ccco2)cc1	0.8	-2.3
CCCC1Cc2nc3sc(C(=O)OCC)c(N)c3cc2CO1 (stereo not given)	-0.2	-0.43
C=CCNCc1nc(-c2cccc(C)c2)no1	-1.9	-0.046
CCNS(=O)(=O)c1ccc(NC(=O)c2ccc3c(c2)OCO3)cc1	-0.2	-0.16
Cc1ccc(C)c(NC(=O)CN(C)C(C)C(=O)N2CC(C)CC(C)C2)c1 (stereo not given)	-4.1	/

Three entries out of the list above, ordered by the number in LANA-nucl inh, low to high:
| SMILES | LANA-nucl inh |
| --- | --- |
| COC(=O)c1ccc(S(N)(=O)=O)o1 | -1.1 |
| CCCC1Cc2nc3sc(C(=O)OCC)c(N)c3cc2CO1 (stereo not given) | -0.43 |
| CCOC(=O)C1CCN(C(=O)Cn2cc(C(=O)c3ccco3)c3ccccc32)CC1 | 0.008 |

Next structures:
SMILES	BasE inh	LANA-nucl inh
CC(C)(C)NC(=O)c1cc2c(s1)CCCCC2	-1.8	2
O=C(NC(=S)NC1CCCc2ccccc21)c1ccco1 (stereo not given)	-1.8	/
O=C(Nc1ccccc1)C1CCN(C(=O)Nc2ccccc2)CC1	0.6	/
O=C1CCC(=O)N1CNC1CCCCC1	-1.4	0.18
NC(=O)c1ccccc1OCC(=O)NS(=O)(=O)c1ccc(Cl)cc1	4.9	-0.45
NC(=O)C1CCN(c2nnnn2-c2ccccc2)CC1	0.7	/
N/C(=N\NS(=O)(=O)c1ccccc1)c1ccccn1	-3.6	1.8
O=c1[nH]c2ccccc2[n+]([O-])c1-c1ccccc1	0.9	/
O=c1oc2ccccc2n1Cc1ccc(C(F)(F)F)cc1	1.4	/
COc1cccc(OC)c1OC(=O)/C=C/c1ccc(C)o1	-12	/
N#CCc1nc(CCNc2ccccc2)no1	-1.5	/
O=C(COC(=O)c1cccc(Cl)c1Cl)Nc1ccc2[nH]c(=O)[nH]c2c1	1.0	/
O=C(Nc1ccc(-c2nc3cc(NC(=O)C4CCCCC4)ccc3o2)cc1)C1CCCCC1	0.8	/
Cc1ccc(C(=O)Nc2noc3ccccc23)cc1	4.4	-0.63
Nc1ccccc1Sc1ncc(C(F)(F)F)cc1Cl	/	-0.97
O=C(CCC(=O)N1CCN(c2ccc(F)cc2)CC1)c1ccc(Cl)cc1	-3.0	0.51
Cc1ccc2c(c1)C1OCCC1C(c1ccco1)N2 (stereo not given)	-5.1	/
Cc1ccc(C)c(NC(=O)C2CCCN(S(=O)(=O)c3c(C)nn(C)c3C)C2)c1 (stereo not given)	2.1	0.35
Cc1cccc(NS(=O)(=O)c2ccc(-c3cc(C(F)(F)F)no3)s2)c1	2.6	/
O=C(NC(C(=O)O)C12CC3CC(CC(C3)C1)C2)c1ccc(F)cc1 (stereo not given)	1.2	/
CC(Oc1ccc(Cl)cc1Cl)C(=O)Nc1ccc(Cl)cn1 (stereo not given)	3.3	0.29
CCCn1c(SC(C)C(=O)Nc2ccc(C#N)cc2)nc2ccccc21 (stereo not given)	-1.6	/
Cc1ccc(C(=O)COC(=O)CN2C(=O)C3CC=CCC3C2=O)cc1C (stereo not given)	-1.4	0.059
CC1(C)NC(=O)N(CN2CCCCC2)C1=O	1.5	-1.3
Cn1c(Sc2c3c(nc4ncnn24)CCC3)nnc1-c1ccccc1	-0.2	/
O=C(CSc1ncccn1)Nc1ccc2c(c1)OCCCO2	4.3	/
CCN(CC)Cc1cc(Nc2ccnc3cc(Cl)ccc23)ccc1O	-3.1	0.59
Cc1ccc(O)c(NC(=O)c2cccnc2Cl)c1	0.7	0.9
CCCOc1cc(C)c(S(=O)(=O)NCCOC)cc1C	-0.4	0.47
COc1cc2c(cc1OC)CN(c1nnnn1-c1ccccc1)CC2	-1.1	/
CCCN(CCC)S(=O)(=O)c1ccc(C(=O)Nc2cc(C(F)(F)F)ccc2Cl)cc1	/	-0.74
CC(C)(C)NC(=O)n1ccc(-c2ccc(-n3ccnc3)cc2)n1	/	-0.21
CCOC(=O)c1cnc2ccccc2c1Nc1ccc(N2CCOCC2)cc1	-1.0	0.46
COc1ccc(-c2c(C)nn3c(C)cc(C)nc23)cc1OC	2.9	0.56
COc1ccc(NC(=O)CC(NCc2ccccc2)C(=O)O)cc1 (stereo not given)	0.7	-1.1
Cc1ccc(Cn2c(=O)c3ccccc3n3c(SCC(=O)N(C(C)C)C(C)C)nnc23)cc1	1.6	/
CCn1nc(C)cc1/C(N)=N/OC(=O)c1cc(Cl)cc(Cl)c1	-1.7	-0.71
CCN(CC1COc2ccccc2O1)C(=O)c1ccc2c(c1)SC1=NS(=O)(=O)CCN12 (stereo not given)	0.8	/
CN(Cc1cccs1)S(=O)(=O)c1ccc(Br)cc1Cl	1.2	/
CCn1c(CC(=O)Nc2ccccc2)nnc1SCC(=O)N1CCc2ccccc21	2.4	-0.59
COc1ccc(CNC(=O)COC(=O)Cc2ccc(OC)cc2)cc1	8.8	/
COC(=O)COc1ccc(Oc2nc(NCC(C)C)nc(N3CCOCC3)n2)nn1	1.1	-0.5
COc1ccc(CNCc2ccccc2)cc1	0.5	-1.4
CC(=O)OCOC(=O)CNc1ccccc1OCCOc1ccccc1NCC(=O)OCOC(C)=O	0.1	-0.11

Compounds listed so far containing an aryl thioether with sulfur outside any ring, in the order listed:
SMILES	BasE inh	LANA-nucl inh
Cc1cccc(CSc2nncn2C)c1	-3.0	2.9
O=c1cc(CSc2nnnn2C2CC2)nc2sccn12	1.7	/
CCn1c(CNC(=O)c2cccc(C)c2)nnc1SCC(=O)N1CCc2ccccc21	-1.1	-0.41
O=C(CSc1nnnn1-c1ccccc1)N1CCCCC1	2.2	/
CCOC(=O)c1nnn2c1nc(SCc1ccc(F)cc1)c1ccccc12	-0.1	/
O=C(CSc1nnnn1Cc1ccccc1)n1c2c(c3c1CCCC3)CCCC2	2.3	-0.85
CC1CCc2sc(-c3nnc(SCC4CCOCO4)o3)cc2C1 (stereo not given)	1.5	/
N#CCSc1ccccc1NC(=O)COC(=O)Cc1c[nH]c2ccccc12	-4.7	/
Nc1ccccc1Sc1ncc(C(F)(F)F)cc1Cl	/	-0.97
CCCn1c(SC(C)C(=O)Nc2ccc(C#N)cc2)nc2ccccc21 (stereo not given)	-1.6	/
Cn1c(Sc2c3c(nc4ncnn24)CCC3)nnc1-c1ccccc1	-0.2	/
O=C(CSc1ncccn1)Nc1ccc2c(c1)OCCCO2	4.3	/
Cc1ccc(Cn2c(=O)c3ccccc3n3c(SCC(=O)N(C(C)C)C(C)C)nnc23)cc1	1.6	/
CCn1c(CC(=O)Nc2ccccc2)nnc1SCC(=O)N1CCc2ccccc21	2.4	-0.59
